# Bioassay records as filed in PubChem.
# Measles inh – inhibitors of measles virus growth in infected cells. infected Vero cells, GFP fluorescence, 64 h; stronger effect = lower value. z-score (test concentration not listed). 33,000 compounds, 0.1% hits;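 active = z-score under -3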;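 note: score is relative to mean and SD of the compound wells of a plate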
# An asterisk follows results filed as active. Some of the compounds tested, so the mix of outcomes need not match the whole.
# Preview, 5 compounds:
Measles inh	Molecule
0.77	O=C(Oc1ccc2ccccc2c1Br)c1ccncc1
-0.61	COc1ccc(-c2[nH]c3ccccc3c2SCCNC(=O)c2ccco2)cc1
-0.15	CCCS(=O)(=O)N1CCCC(C(=O)NC(C)C)C1 (stereo unspecified)
0.71	Cc1ccc(C(=O)NCCNC(=O)c2nonc2N)cc1
0.41	COc1ccc(C2CC(C(F)(F)F)n3nc(C(=O)Nc4cc(OC)ccc4OC)cc3N2)cc1 (stereo unspecified)

# Main list, repeating the preview:
Measles inh	Molecule
0.77	O=C(Oc1ccc2ccccc2c1Br)c1ccncc1
-0.61	COc1ccc(-c2[nH]c3ccccc3c2SCCNC(=O)c2ccco2)cc1
-0.15	CCCS(=O)(=O)N1CCCC(C(=O)NC(C)C)C1 (stereo unspecified)
0.71	Cc1ccc(C(=O)NCCNC(=O)c2nonc2N)cc1
0.41	COc1ccc(C2CC(C(F)(F)F)n3nc(C(=O)Nc4cc(OC)ccc4OC)cc3N2)cc1 (stereo unspecified)
1.4	CCc1cccc(C)c1NC(=O)c1cc(S(=O)(=O)NC2CCCCC2)ccc1F
-0.05	CC1CCCC(N2C(=O)C3C(C(=O)Nc4cccc(Cl)c4)C4C=CC3(O4)C2C(=O)NC2CCCCC2)C1C (stereo unspecified)
1.5	CCC(=O)N1CCc2cc(S(=O)(=O)NCCN3CCN(c4ccccc4F)CC3)ccc21
0.24	COc1cccc(OC)c1C(=O)N1CC(=O)N(CCc2ccccc2)C(=O)C1
2.7	Cc1ccc(N=C2SC(C(=O)Nc3ccc(C(=O)O)cc3)CC(=O)N2C)cc1C (stereo unspecified)
-0.57	COc1ccc(-c2nnc(NC(=O)c3ccc(S(=O)(=O)N4CCCCC4C)cc3)o2)c(OC)c1 (stereo unspecified)
-0.1	O=C(CSc1ncn[nH]1)Nc1cccc2ccccc12
-0.17	CCOC(=O)c1sc(N2C(=O)C(O)=C(C(=O)c3ccco3)C2c2ccco2)nc1C (stereo unspecified)
-0.26	CC1CCN(S(=O)(=O)c2ccc3c(c2)c(=O)n(C)c(=O)n3C)CC1
0.9	COc1ccc(C(=O)Nc2nc3c(s2)C(=O)CC(C)(C)C3)cc1
-0.61	CCOC(=O)c1sc2nc(C)nc(N3CCC(C)CC3)c2c1C
0.45	C=CCN(C(=O)c1ccc(N2CC3CC(C2)c2cccc(=O)n2C3)c(NC(=O)c2ccccc2Br)c1)c1ccccc1 (stereo unspecified)
0.02	CCN(CCNC(=O)C1CCN(S(C)(=O)=O)CC1)c1ccccc1
-0.45	Cc1c(NC(=O)c2ccccc2)cccc1-c1nc2ccccc2s1
-0.78	CC1=C(C(=O)Nc2ccc(C)cc2C)C(c2cccc(Br)c2)NC(=S)N1 (stereo unspecified)
0.77	COc1ccc(S(=O)(=O)NCc2ccc3c(c2)OCO3)cc1C(=O)O
0.03	Cc1ccc(N=C2SC(C(=O)Nc3cccc(Cl)c3)CC(=O)N2C)cc1C (stereo unspecified)
-0.19	Cc1nc2c(C(=O)N3CCCC3)c[nH]n2c(=O)c1Cc1cccc(Cl)c1
-1.1	O=C(CCc1ccccc1)Nc1nnc(-c2ccccc2I)s1
-0.34	COc1ccc(-c2cc(-c3ccccc3)nc(SCC(=O)NC3CC3)c2C#N)cc1
-0.12	CC(=O)c1c(C)oc2c(Cl)cc(NS(=O)(=O)c3ccccc3)cc12
-0.45	COc1ccccc1-n1c(SCC(=O)Nc2ccc(C)cc2)nc(O)cc1=O
0.95	CCOC(=O)CNC(=O)c1cc2c(n(-c3ccc(C)cc3)c1=O)CC(C)(C)CC2=O
1	Cc1ccc(N2C(=S)N(c3ccccc3)C3CS(=O)(=O)CC32)cc1 (stereo unspecified)
-0.15	COc1ccc(Cl)cc1Nc1nc(-c2c(C)nc3ccccn23)cs1

# The last two records of the section before come first, to join the parts.
Measles inh	Molecule
1	Cc1ccc(N2C(=S)N(c3ccccc3)C3CS(=O)(=O)CC32)cc1 (stereo unspecified)
-0.15	COc1ccc(Cl)cc1Nc1nc(-c2c(C)nc3ccccn23)cs1
-1	O=C1CCC(=O)N1c1ccc(NCCc2cccc(F)c2)c([N+](=O)[O-])c1
2.8	CC1=CC(C)(C)Nc2ccc(OC(=O)Cc3cccc4ccccc34)cc21
0	Cc1cc([N+](=O)[O-])cc2c1NC(=O)C2(O)N1CCOCC1 (stereo unspecified)
1.2	Cn1nccc1C(=O)NCCN1C(=O)OC2(CCCCC2)C1(C)O (stereo unspecified)
1.9	COc1ccccc1-n1c(C)nc2cc(C(=O)NCc3cccnc3)ccc21
-0.65	COc1ccc(CN2CCCC(C(=O)N3CCCC3)C2)c(OC)c1OC (stereo unspecified)
-0.9	OC1CCCc2c1[nH]c1ccc(C34CC5CC(CC(C5)C3)C4)cc21 (stereo unspecified)
0.22	COc1ccc(-n2c(C)c(C(C)=O)c3cc(O)ccc32)cc1
0.27	CCN(CC)S(=O)(=O)c1ccc(C(=O)N=c2sc3cc(C(=O)OC)ccc3n2C)cc1
-0.26	Cc1cc(Nc2ncnc3ccccc23)ccc1Br
-0.22	CSc1ccccc1NC(=O)C12CC3CC(C1)CC(n1cnc([N+](=O)[O-])n1)(C3)C2
-0.53	Cc1ccc(CNC(=O)CCCn2c(=O)c3ccccc3n(Cc3ccccc3Cl)c2=O)cc1
-0.7	CCOC(=O)c1c(C)oc2c1cc(NS(=O)(=O)c1c(C)cc(C)cc1C)c1ccccc12
-1.5	Cc1nc2c(C(=O)NCC3CCCO3)cnn2c(C)c1Cc1ccccc1F (stereo unspecified)
-0.04	CC(=O)NCCc1nc2ccccc2n1Cc1ccccc1C
0	Cc1ccn2c(-c3csc(Nc4cccc(Cl)c4C)n3)c(C)nc2c1
-0.1	Cc1n[nH]c(C)c1S(=O)(=O)N1CCN(c2ccccn2)CC1
0.04	O=C(NCCC1=CCCCC1)c1ccc2c(=O)n(Cc3ccccc3Cl)c(=S)[nH]c2c1
0.42	Cc1cc(C)n(S(=O)(=O)c2cc(C(=O)O)c(N3CCCC3)cc2Cl)n1
0.3	O=P(O)(c1ccccc1)c1nccn1-c1ccccn1
-0.62	COc1ccccc1N1CCN(C2CCN(C(=O)c3cccc(Cl)c3)CC2)CC1
0.64	Cc1sc2ncn(CC(=O)NCCC3=CCCCC3)c(=O)c2c1S(=O)(=O)N1CCCCC1
-0.41	Cc1cc(C)c(OCC(=O)OCC(=O)c2ccc(Cl)cc2)c(C)c1
-0.41	O=C(COc1ccccc1F)Nc1nc(-c2cccs2)c(NC(=O)c2ccccc2)s1
-0.14	Cc1ccc(CNC(=O)c2oc3ccc(S(=O)(=O)N4CC(C)CC(C)C4)cc3c2C)cc1 (stereo unspecified)
-0.68	Cc1ccnc(NS(=O)(=O)c2ccc3ccccc3c2)c1
-1.9	CCOC(=O)c1cc(-c2ccccc2)sc1NC(=O)CC
1.1	CC(C)c1ccc(NS(=O)(=O)c2ccc3[nH]cc(C(=O)N4CCC(C(N)=O)CC4)c(=O)c3c2)cc1
0.8	CCCN1CCN(C(=O)c2cn(C)c(=O)c3cc(OC)c(OC)cc23)CC1
-0.3	Cc1ccc(N(C(=O)c2cccc(N)c2)c2ccc3ccccc3c2)cc1

# Compounds shown so far that contain two or more sulfur atoms (four):
Measles inh	Molecule
1	Cc1ccc(N2C(=S)N(c3ccccc3)C3CS(=O)(=O)CC32)cc1 (stereo unspecified)
0.27	CCN(CC)S(=O)(=O)c1ccc(C(=O)N=c2sc3cc(C(=O)OC)ccc3n2C)cc1
0.64	Cc1sc2ncn(CC(=O)NCCC3=CCCCC3)c(=O)c2c1S(=O)(=O)N1CCCCC1
-0.41	O=C(COc1ccccc1F)Nc1nc(-c2cccs2)c(NC(=O)c2ccccc2)s1

# Going on with the list:
Measles inh	Molecule
0.15	O=C(Cn1ccc2ccccc2c1=O)NCC(=O)NC1CCCCCC1
0.28	Clc1ccc(-c2ccc(-c3nc4ccccc4o3)o2)cc1
-0.78	CCOc1ccc2c(c1)C(=C1SC(C(=O)OC)=C(C(=O)OC)S1)C(=S)C(C)(C)N2C(=O)CC(C)C
0.28	O=C(Cn1c(=O)n(Cc2ccccc2)c(=O)c2ccccc21)c1ccc(Br)cc1
1.9	Cc1cc(C)cc(NC(=O)c2cccc(C(=O)Nc3cc(C)cc(C)c3)c2)c1
0.25	O=C(O)CCCN1C(=O)c2ccc(C(=O)O)cc2C1=O
1.7	Cc1cccc(N2CCN(C(=O)c3ccc4c(c3)NC(=O)c3ccccc3N4)CC2)c1C
-1.7	CCOC(=O)c1sc2ncnc(Nc3ccc(Oc4ccccc4)cc3)c2c1C
0.09	CCN(CC)S(=O)(=O)c1ccc(C(=O)N2CCN=C2SCc2ccc(C(F)(F)F)cc2)cc1
0.81	CCN(CC)S(=O)(=O)c1ccc(NC(=O)c2cccs2)cc1
-0.02	CCCCn1c(N)nc2ccccc21
0.4	COCCNC(=O)c1c[nH]n2c(=O)c(Cc3ccc(Cl)cc3)c(C)nc12
1.7	Cc1c(C(c2ccc([N+](=O)[O-])o2)c2c(C)n(C)n(-c3ccccc3)c2=O)c(=O)n(-c2ccccc2)n1C
0.07	COc1ccc(-c2csc(NC(=O)c3ccc(S(=O)(=O)N4CCc5ccccc5C4)cc3)n2)cc1
-1.7	Cn1cc(CC(=O)NCCN2CCOCC2)c2ccccc21
1.4	Cc1cccc(-c2noc(-c3ccc(C)c(Cl)c3)n2)c1
-0.59	Cc1ccc(NS(=O)(=O)c2ccc3nc(-c4ccccc4)[nH]c3c2)cc1C
0.25	CCOCCOC(=O)C1=C(C)NC(=O)NC1c1ccc(OC)cc1 (stereo unspecified)
-0.17	COc1ccc(N2C(=O)CC(Sc3n[nH]c(-c4cccc(C)c4)n3)C2=O)cc1 (stereo unspecified)
0.09	N#CCCNCC1(c2ccccc2)CCCC1
-0.3	COCCOC(=O)C1=C(C)NC(=O)NC1c1cccc2ccccc12 (stereo unspecified)
-0.26	Cn1cc(C(=O)N2CCN(c3ccc(Cl)cc3)CC2)c2c3ccccc3n(C)c2c1=O
-0.53	CCCCCSc1nc2n(n1)C(c1ccc(Cl)cc1)C1=C(CCCC1=O)N2 (stereo unspecified)
-0.57	Nc1ccc2oc(-c3cccc4ccccc34)nc2c1
-1.9	CCc1ccc(NC(=O)CCC(=O)Nc2ccc3nc(N4CCCCC4)cc(C)c3c2)cc1
0.59	O=C(CNS(=O)(=O)c1ccc(Br)s1)Nc1ccc2c(c1)OCCO2
-1.2	O=C(Nc1ccccc1[N+](=O)[O-])c1cccc(S(=O)(=O)Nc2ccc(Cl)cc2)c1
0.19	CCOc1ccc(S(=O)(=O)Nc2ccc(C(=O)OC)cc2)c2cccnc12
1.2	O=[N+]([O-])c1ccc2nn(Cc3ccccc3)cc2c1
1.1	O=C(O)CNS(=O)(=O)c1ccc(Oc2ccccc2Cl)cc1

Measles inh	Molecule
-0.49	COc1ccc(-c2cc(=O)oc3c(C)c4oc(C)c(C)c4cc23)cc1
0.13	CC1=C(C(=O)OCc2ccccc2)C(c2ccccc2I)NC(=O)N1C (stereo unspecified)
-0.81	CC(C)CC(N)C(=O)OCc1ccccc1 (stereo unspecified)
-0.62	Cc1ccc2nc(SCC(=O)Nc3ccc(Cl)cc3)[nH]c2c1
-1.4	COC(=O)CSc1nc(N)c(C#N)c(-c2ccccc2)c1C#N
1.7	Cc1c(C(=O)NCC2COc3ccccc3O2)oc2ccc(S(=O)(=O)N(C)C3CCCCC3)cc12 (stereo unspecified)
-0.04	COc1cccc2cc(-c3nc(Nc4cccc(C)c4C)sc3C)c(=O)oc12
-0.44	CCOC(=O)c1cnc2c(C)cc(C)cc2c1Nc1ccc(OC)cc1
-1.8	COc1ccc(C(=O)Oc2ccc(C=Nc3ccc(C)cc3C)cc2)cc1
-2	CCOC(=O)c1ccc(NC(=O)CSc2nccn2-c2ccc([N+](=O)[O-])cc2)cc1
0.78	O=C1c2ccccc2C(=O)c2cc(S(=O)(=O)N(CCO)Cc3ccccc3)ccc21
-0.33	O=C1OCc2c1[nH]c(=O)[nH]c2=O
-0.3	CCOC(=O)c1ccc(-n2c(N)c(C(=O)OC)c3nc4ccccc4nc32)cc1
0.1	CC(NC(=O)c1c[nH]c2ccc(S(=O)(=O)Nc3ccc4c(c3)OCCO4)cc2c1=O)c1ccccc1 (stereo unspecified)
0.02	COc1ccc(-c2sc(C(=O)O)cc2CC(=O)O)cc1
-0.48	O=C(O)c1c[nH]c2ccc(S(=O)(=O)NCc3ccco3)cc2c1=O
0.06	CC(=O)NC(CCS(C)(=O)=O)C(=O)Nc1ccc(F)cc1 (stereo unspecified)
-0.73	O=C(Cc1ccccc1)OCC(=O)c1ccc([N+](=O)[O-])cc1
0.86	COc1ccc(NS(=O)(=O)c2c(C)nn(C)c2C)cc1
-0.13	Cc1ccc(CN(CC(=O)N2CCN(c3ccccc3)CC2)S(=O)(=O)c2ccc(C)cc2)cc1
-0.66	O=c1c2sccc2n(Cc2cccnc2)c(=O)n1-c1cccc(C(F)(F)F)c1
-0.53	CC1CCN(c2nc(-c3ccc(Br)cc3)cs2)CC1
-1.1	COc1ccc(OC)c(C2C(C(=O)Nc3ccc(Br)cn3)=C(C)NC3=C2C(=O)CCC3)c1 (stereo unspecified)
-0.72	Cc1ccccc1CSc1nc2ccccc2c(=O)n1CC1CCC(C(=O)NCc2ccco2)CC1 (stereo unspecified)
-1.1	CCC(=O)Nc1nc(C)c(-c2csc(Nc3cccc(C(=O)O)c3)n2)s1
1.7	NC(=O)C1CSCC1=O (stereo unspecified)
0.5	CC12CC(NC(=O)N1c1cccc(C(=O)N3CCCC3)c1)c1cc(Cl)ccc1O2 (stereo unspecified)
0.41	CCOCCOC(=O)C1=C(C)NC2=C(C(=O)CC(c3ccc(Cl)cc3)C2)C1c1ccc(F)cc1 (stereo unspecified)
-0.13	Cc1sc2ncn(CC(=O)NCCCN3CCOCC3)c(=O)c2c1S(=O)(=O)N1CCC(C)CC1
0.41	CCC1Oc2ccccc2N(CC(=O)NC2CCCC(C)C2C)C1=O (stereo unspecified)
0.27	O=C1c2ccccc2-c2c1c(-c1ccccc1[N+](=O)[O-])nc1ccc3ccccc3c21
-0.04	Cn1c(Cl)cnc1-c1cc(=O)c2cc(Cl)ccc2o1
0.34	CC1=C(C(=O)OC2CCCCC2)C(c2ccc(C(F)(F)F)cc2)C2=C(CCCC2=O)N1 (stereo unspecified)

# Looked up above:
# CC12CC(NC(=O)N1c1cccc(C(=O)N3CCCC3)c1)c1cc(Cl)ccc1O2 (stereo unspecified) – Measles inh = 0.5
# O=C1OCc2c1[nH]c(=O)[nH]c2=O – Measles inh = -0.33
# COc1ccc(C(=O)Oc2ccc(C=Nc3ccc(C)cc3C)cc2)cc1 – Measles inh = -1.8
